Six1-Eya2 inh: Six1/Eya2 interaction inhibition; AlphaScreen GST-Six1/His-Eya2 binding, biochemical; active compounds read low; control for the full effect not named in the record; activity change, % (no concentration beside the values); 0.56% of 360,000 active; AID 651725; in the data active = activity change below about -65%; inconclusive = about -30% to -65%; inactive = above about -30%; also: % is scaled to controls: 0 for no effect and ±100 for the full control effect
Target sequence (O00167 whole entry, looked up): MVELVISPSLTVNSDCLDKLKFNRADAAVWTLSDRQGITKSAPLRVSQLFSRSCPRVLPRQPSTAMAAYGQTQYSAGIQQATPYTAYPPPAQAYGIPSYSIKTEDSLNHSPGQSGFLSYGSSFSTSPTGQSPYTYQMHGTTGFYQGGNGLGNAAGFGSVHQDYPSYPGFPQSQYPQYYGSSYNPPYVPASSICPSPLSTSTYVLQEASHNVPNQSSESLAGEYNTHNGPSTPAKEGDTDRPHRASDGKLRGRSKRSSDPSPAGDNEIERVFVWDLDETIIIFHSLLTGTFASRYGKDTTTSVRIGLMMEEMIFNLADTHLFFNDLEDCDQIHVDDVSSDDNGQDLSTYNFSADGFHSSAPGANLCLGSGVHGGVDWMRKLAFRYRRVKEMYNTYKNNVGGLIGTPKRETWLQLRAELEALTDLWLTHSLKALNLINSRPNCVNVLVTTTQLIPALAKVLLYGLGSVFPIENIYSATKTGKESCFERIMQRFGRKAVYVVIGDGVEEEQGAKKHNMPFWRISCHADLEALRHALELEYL
Target sequence (Q15475 whole entry, looked up): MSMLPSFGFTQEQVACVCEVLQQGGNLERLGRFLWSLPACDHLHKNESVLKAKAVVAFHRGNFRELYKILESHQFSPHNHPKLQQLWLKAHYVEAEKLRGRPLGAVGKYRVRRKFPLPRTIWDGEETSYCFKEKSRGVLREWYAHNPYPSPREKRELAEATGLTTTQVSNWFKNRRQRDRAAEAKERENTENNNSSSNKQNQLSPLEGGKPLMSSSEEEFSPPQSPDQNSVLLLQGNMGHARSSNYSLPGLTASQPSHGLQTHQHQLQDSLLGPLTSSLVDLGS
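Compounds are tested against tagged Six1 and Eya2 proteins bridged by glutathione donor and nickel acceptor beads; after a one-hour incubation at 37 °C without light, AlphaScreen emission is recorded.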
D2 PAM: positive allosteric modulators of human D2 dopamine receptor | DiscoveRx D2 beta-arrestin cells, luminescence, 90 min; 100% = 57 uM dopamine signal | 0.23% of 360,000 active | potentiation, % (concentration not given with the values) | P14416; active = potentiation of 50% or more; inconclusive = 30% to 50%; inactive = 30% or less;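 also: compound concentration not given in the record; tested on top of an EC20 dose of dopamine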
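D2 cells co-treated with compound plus 50 nM dopamine (EC20) for 90 min at 37 deg C to detect potentiation. Beta-arrestin recruitment was read as enzyme-fragment luminescence after 1 h at ambient temperature. Full response was set by 57 uM dopamine.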
CtBP-E1A blk: CtBP/E1A binding inhibition. AlphaScreen GST-E1A/His-CtBP binding, 1536-well; active compounds read low; control for the full effect not named in the record. activity change, % (concentration not given with the values). 0.49% of 340,000 active. AID 651724; in the data active means activity change below about -65%; inconclusive means about -30% to -65%; inactive means above about -30%; also: % is scaled to controls: 0 for no effect and ±100 for the full control effect
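GST-E1A and His-tagged CtBP (125 nM each as 5X stock) were preincubated with pin-transferred compound for 2 h at 37 °C in the dark, then glutathione donor and nickel acceptor beads were added for 1 h before AlphaScreen reading.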
D2 agonist: agonists of human D2 dopamine receptor (beta-arrestin) | P14416 | activation, % (concentration not given with the values) | DiscoveRx PathHunter D2 beta-arrestin, luminescence, 90 min; 100% = 57 uM dopamine signal | 0.084% of 360,000 active; in the data active = activation above about 40%; inconclusive = about 15% to 40%; inactive = below about 15%; also: compound concentration not given in the record; the text of the record calls up to 30% inactive
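Agonist mode: compounds alone added to overnight-plated D2 PathHunter cells for 90 min at 37 C, with 57 uM final dopamine (EC100) defining full response. Beta-arrestin recruitment detected by chemiluminescent reagent, read after 1 h at ambient temperature.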
gsp antag: antagonizes gsp, the McCune-Albright syndrome mutation. 0.4% of 340,000 active. gsp-mutant cells, cAMP HTRF, 30 min; control for the full effect not named in the record. AID 624288. Potency, µM (doses to about 76.9 µM), inactives show top-dose activity change, negative = inhibition, usual class: inhibitors; active = falling curve of any shape with a large fitted effect; inconclusive = falling curve, mostly with a smaller effect; inactive = flat or rising curve; cell line not stated here;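 also: intracellular cAMP measured with PDE inhibitor Ro 20-1724 present during compound exposure; potency is read from the fitted curve at half-maximal effect; % is scaled to controls: 0 for no effect and ±100 for the full control effect; nearly all actives have a fitted effect of over 65% in size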
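G418-selected cells were plated in DMEM/10% FBS for 16-24 h at 37C, then treated with compounds plus the PDE inhibitor […] (300 uM solution added) for 30 min at 37C. Intracellular cAMP was measured by HTRF after 30 min lysis at room temperature.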
gsp ag: gsp mutant agonism. Potency, µM (highest dose often 76.9 µM), without a hit: top-dose activation (cAMP increase), most hits filed as activators. gsp mutant cells, cAMP HTRF, 30 min; control for the full effect not named in the record. 0.13% of 340,000 active; active = well fitted activation curve with a large enough effect; inconclusive = small, poorly fitted or top-dose-only effect, or another doubt; inactive = no such curve, though single readings can be large or run the other way; cell line not stated here;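 also: phosphodiesterase inhibitor Ro 20-1724 added with compounds to block cAMP breakdown; potency is read from the fitted curve at half-maximal effect; nearly all actives have a fitted effect of over 60% in size; about a fifth of the inactives were tested at one dose only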
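Cells in DMEM/10% FBS with G418 were pretreated with compounds in DMSO plus […] (300 uM stock) for 30 min at 37C. cAMP was measured by HTRF (cAMP-d2 plus anti-cAMP antibody-K) after 30 min at room temperature.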
An asterisk follows results filed as active; u = inconclusive; x = not tested or not shown; [ ] = another dose, or the depositor's remark.

SMILES	Six1-Eya2 inh	D2 PAM	CtBP-E1A blk	D2 agonist	gsp antag	gsp ag
C[C@@H]1CN([C@@H](C)CO)C(=O)CCCn2cc(nn2)CO[C@H]1CN(C)C(=O)CCCN(C)C	-1	x	0	-2.1	x	-7%
COc1ccc(-c2cc(C3CCN(C(=O)OC(C)(C)C)CC3)[nH]n2)cc1	2	-9	1	-3.7	-16%	-1%[15.4 µM]
NS(=O)(=O)c1ccc(NC(=O)/C=C/c2ccco2)cc1	-12	-3	-6	-4.4	-3%	-34%[inhibitor]
CCOC(=O)C1CCCN(C(=O)CN2C(=O)COc3ccc(C(C)(C)C)cc32)C1 (stereo not drawn)	5	-13	2	-3.9	-10%	-35%[inhibitor]
O=C(NC1CCS(=O)(=O)C1)c1cccs1 (stereo not drawn)	2	3	2	2.1	6%	24%
Cc1nc2ccccc2c(=O)n1NC(=O)c1ccccc1Cl	0	-11	2	-2.9	1%	-2%
O=C(COC(=O)COc1ccc2c(c1)CCC2)Nc1ccccc1	6	-2	13	3.4	10%	-1%
CN(CC1CCCO1)S(=O)(=O)c1ccc(C(=O)Nc2ccc(F)cc2)cc1 (stereo not drawn)	0	12	-6	-3.2	5%	-1%
O=C(CSc1ccc2nnc(-c3cccnc3)n2n1)Nc1cccc(F)c1	-26	-9	u	2.2	23%	u
Cc1cc(C)n(-c2ccc(C(C)C)cc2)c(=O)c1C#N	1	-2	-1	-6.8	13%	-2%[15.4 µM]
COc1ccc2c(c1)c1nc(SCC(C)C)n(CCO)c(=O)c1n2C	-3	-7	2	-7.0	6%	-10%
COc1ccc(C2=NOC(Cn3nc(-c4ccccc4)cc3C(=O)O)C2)cc1 (stereo not drawn)	0	-7	0	0.5	-6%	x
CCn1c(=N)c(C(=O)NCCCOC)cc2c(=O)n3cccc(C)c3nc21	-19	-1	-13	-2.8	15%	22%
COc1ccccc1NC(=O)C/C(N)=N/O	-1	14	2	-3.6	6%	-7%
O=[N+]([O-])c1ccc2ncnc(Nc3ccc4c(c3)OCCO4)c2c1	14	-14	0	-0.8	-20%	15%[15.4 µM]
CNC(=O)Cn1c(C)cc(=O)c2cccc(C)c21	-14	-3	4	-3.1	-18%	12%[15.4 µM]
CCN1CCN(CCNC(=O)c2ccc(CS(=O)c3ccc(Br)cc3)o2)CC1 (stereo not drawn)	4	-8	1	-3.6	19%	-17%
CCc1ccc(N(CC(=O)NCCc2ccccc2)C(=O)CCC(=O)Nc2ccccn2)cc1	6	-8	-2	0.5	3%	-3%[15.4 µM]
O=S(=O)(CCNCCc1ccccc1)NCc1ccccc1	4	-17	0	-1.0	7%	x
COc1ccc(Cc2n[nH]c(=S)n2-c2cc(C)ccc2C)cc1OC	12	-10	7	-2.1	x	x
Cc1cc(C)n2nc(SCC(=O)NC3CCCCC3)nc2n1	5	-5	x	3.2	8%	11%
COc1ccc(C(=O)NC(=S)N(C)C2CCCCC2)cc1	3	-9	0	-2.9	1%	3%
C=C(C)c1cccc(C(C)(C)NC(=O)N2CCN(c3ccccn3)CC2)c1	0	-3	1	1.3	-5%	-38%[inhibitor]
O=C(CN1CCC(Cc2ccccc2)CC1)Nc1ccc2c(c1)OCCO2	-4	-26	-2	-1.1	13%	0%
O=C1[C@@H]2Cc3c([nH]c4ccccc34)C(c3ccc(Cl)cc3)N2C(=O)CN1CCO (stereo partly drawn)	-6	-1	x	4.8	5%	29%
CS(=O)(=O)N1CCCC(C(=O)NCc2ccc(F)cc2)C1 (stereo not drawn)	-1	-8	0	-3.6	10%	-52%[inhibitor]
CCc1nc(N)nc(N)c1-c1ccc(Cl)c([N+](=O)[O-])c1	1	6	-2	1.1	9%	-6%
CC(=O)c1cccc(NC(=O)c2nc(-c3ccccc3)oc2C)c1	-2	-3	1	3.1	-27%	8%[15.4 µM]
COc1ccc(N2C(=O)C(CN3CCCCC3)C2c2ccccc2)cc1 (stereo not drawn)	-3	-27	-15	-4.3	-4%	11%
Cc1ccc(-c2nnn(CC(=O)N(c3ccccc3)C(C(=O)NCC3CCCO3)c3ccc(Cl)cc3)n2)cc1 (stereo not drawn)	9	-12	-1	-0.3	3%	-33%[inhibitor]
Cc1ccc(S(=O)(=O)NCCC(=O)N2CCN(c3cccc(Cl)c3)CC2)cc1C	-10	-3	-10	-2.2	-24%	17%
NC(=O)COC(=O)c1ccc(NS(=O)(=O)c2ccc3c(c2)OCCO3)cc1	-2	-3	1	-1.6	4%	-4%[15.4 µM]
Cc1ccc(S(=O)(=O)N2CCN(c3c([N+](=O)[O-])cc(C(F)(F)F)cc3[N+](=O)[O-])CC2)cc1	-25	7	-26	2.5	0%	-47%[inhibitor]
CN(CCC#N)C(=O)CC(Cc1ccccc1)C1CCOC(C)(C)C1 (stereo not drawn)	6	-3	-5	-3.2	-1%	22%
Cc1ccc(S(=O)(=O)N(C)Cc2ccc(C(=O)NN=C3C4CC5CC(C4)CC3C5)cc2)cc1	-7	-19	-3	-2.7	3%	-9%
N=C(N)SCc1ncccc1O	9	-6	-11	-2.7	6%	3%
CCN(CC)C(=O)CCNS(=O)(=O)c1ccc(C)cc1	6	8	3	-1.6	-8%	9%
O=C(NCc1ccc(F)cc1Cl)C1CCN(S(=O)(=O)N2CCC3(CC2)OCCO3)CC1	6	-6	3	-1.6	-7%	7%
Cc1ccc(C(=O)NC(C)C2CC3CCC2C3)c(C)c1 (stereo not drawn)	8	-7	7	10	6%	-24%
C=CCN(CC(O)c1cccc([N+](=O)[O-])c1)C(C)CCc1ccccc1 (stereo not drawn)	-8	-5	-4	1.3	-4%	-6%[15.4 µM]

Some of these compounds in order of formula weight, descending:
SMILES	Six1-Eya2 inh	D2 PAM	CtBP-E1A blk	D2 agonist	gsp antag	gsp ag
NC(=O)COC(=O)c1ccc(NS(=O)(=O)c2ccc3c(c2)OCCO3)cc1	-2	-3	1	-1.6	4%	-4%[15.4 µM]
C=C(C)c1cccc(C(C)(C)NC(=O)N2CCN(c3ccccn3)CC2)c1	0	-3	1	1.3	-5%	-38%[inhibitor]
CN(CCC#N)C(=O)CC(Cc1ccccc1)C1CCOC(C)(C)C1 (stereo not drawn)	6	-3	-5	-3.2	-1%	22%
CCN(CC)C(=O)CCNS(=O)(=O)c1ccc(C)cc1	6	8	3	-1.6	-8%	9%
Cc1ccc(C(=O)NC(C)C2CC3CCC2C3)c(C)c1 (stereo not drawn)	8	-7	7	10	6%	-24%

More records
SMILES	Six1-Eya2 inh	D2 PAM	CtBP-E1A blk	D2 agonist	gsp antag	gsp ag
CC1(Oc2ccccc2)CCN(Cc2ccc(-c3ccccn3)cc2)C1 (stereo not drawn)	-19	-13	-15	-2.7	x	x
Cn1c(N2CCOCC2)c(/C=N/O)c2ccccc21	9	-5	-6	-4.5	8%	3%[15.4 µM]
CCOC(=O)c1c(NC(=O)CSc2cn(CC)c3ccccc23)sc2c1CCC2	1	-3	-9	-5.8	-1%	-5%
Cc1cc(C)cc(N(C(C)C(=O)NCCC2=CCCCC2)S(C)(=O)=O)c1 (stereo not drawn)	0	-6	1	-2.5	-6%	-4%
COc1cccc(CC(Cc2nc3ccccc3[nH]2)c2nc3ccccc3[nH]2)c1 (stereo not drawn)	-7	-7	-4	-6.5	12%	-26%[15.4 µM]
c1ccc(Cn2ncc3c(N4CCN(C(c5ccccc5)c5ccccc5)CC4)ncnc32)cc1	1	-12	5	-6.3	-23%	-9%[15.4 µM]
COc1ccc(CC(=O)NCc2cccs2)cc1	1	6	3	-0.9	16%	-1%
CCOC(=O)c1ccc(NC(=O)CSc2nnc(CCc3ccc(C)o3)n2-c2ccccc2)cc1	-12	-3	-7	-1.2	4%	-1%
COc1ccc(NC(=O)Nc2nnc([C@H]3C[C@H](O)[C@@H](CO)O3)s2)cc1	0	-5	3	6.7	x	x
O=C1C=C(Nc2ccccc2O)c2ccccc2C1=O	u	u	12	8.2	u	-36%[inhibitor]
CCNc1ccc(C(=O)OCC(=O)N(Cc2ccccc2)C(C)(C)C)cc1[N+](=O)[O-]	1	-2	-1	-0.8	u	-17%
Clc1nc(-c2ccccc2)c2ccccc2n1	0	-1	-1	3.1	8%	-47%[inhibitor]
O=C(NCc1ccc(Cl)cc1)[C@@H]1CCCN1S(=O)(=O)c1ccc(Cl)cc1	8	-10	28	-1.3	-9%	-2%[15.4 µM]
CC(=O)Nc1cccc(-c2ccnc3c2CC(C(=O)NCc2cccc(Cl)c2)O3)c1 (stereo not drawn)	-5	4	1	u	x	x
O=C(COC(=O)Cc1cccc(C(F)(F)F)c1)Nc1ccc2c(c1)OCCO2	4	0	x	1.1	73%[activator]	7%
Brc1ccc(-c2ccc(CNCc3ccccn3)o2)cc1	-12	-75	x	-2.0	10%	-24%
NNC(=O)CC(=O)NC1(Cc2ccc(O)cc2)CCCCC1	-8	-17	0	-2.5	-11%	-2%[15.4 µM]
C[C@H](CO)N1C[C@H](C)[C@@H](CN(C)C(=O)NC2CCCCC2)Oc2c(NC(=O)CCC(F)(F)F)cccc2C1=O	2	-7	5	0.0	-6%	x
CCC1C/C(=C\c2cc(OC)c(OC)cc2OC)C(=O)/C(=C/c2cc(OC)c(OC)cc2OC)C1 (stereo not drawn)	u	-7	-27	-16	-29%	-1%
CCOC(=O)C1=C(N)OC2=C(C(=O)CC(C)(C)C2)C1c1cccnc1 (stereo not drawn)	7	5	-1	-0.4	-6%	1%
Cc1nn(-c2ccc(N3CCCCC3)nn2)c(C)c1CCC(=O)Nc1ccc(F)cc1	5	5	1	3.9	-7%	-25%
Cc1ccccc1OCC(=O)OCC(=O)c1cc(C)n(C2CC2)c1C	-14	-2	0	4.0	5%	-44%[inhibitor]
Cc1ccc(S(=O)(=O)N2CCCC(C(=O)NCCc3ccccc3)C2)cc1 (stereo not drawn)	10	-1	-8	-0.1	-2%	27%[15.4 µM]
O=C(NCc1ccco1)C1CCN(C(=O)Cc2ccccc2)CC1	14	-20	3	-0.8	3%	41%
CCN1C(=O)c2cccc3c(NC(=O)c4ccccc4)ccc1c23	u	-7	u	-1.5	-11%	-25%
COc1cccc(CNC(=O)CCn2c(=O)c3cccn3c3cccnc32)c1	1	-5	-3	-2.0	-5%	u
Cc1cccc(OCCCC(=O)N2CCCc3ccccc32)c1C	6	-14	16	-1.8	-15%	-70%[inhibitor]
CCN(CC)C(=O)Cn1c(=O)n(CCC(=O)Nc2ccc(F)cc2)c(=O)c2sccc21	-1	-1	3	-1.1	-3%	u
Cc1nc(N2CCN(c3ccccn3)CC2)c2c(C)c(C(=O)Nc3ccc(F)cc3F)sc2n1	-17	-5	-13	-1.3	-36%	-1%[15.4 µM]
Cc1noc(/C=C/N(C)C)c1S(=O)(=O)N(C)CC(=O)N1CCc2ccccc21	-6	-7	-1	-4.3	-2%	-5%
CC1=CN(S(=O)(=O)c2ccc(C)cc2)C[C@@H]2c3ccccc3N(S(=O)(=O)c3ccc(C)cc3)[C@H]12	-3	-4	3	-4.4	2%	x
O=C(N/N=C/c1ccc(Br)s1)c1cccc([N+](=O)[O-])c1	-16	1	21	-0.5	-1%	-9%[15.4 µM]
